AF4-AF9 inh: inhibitors of AF4 peptide binding to AF9, primary screen, biochemical, AlphaScreen, biotin-AF4 peptide, FLAG-AF9, single point; inhibition, % at 10 µM; Protein AF-9 (Homo sapiens), P42568; 350,000 compounds, 0.47% hits;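 active = every replicate reaching a set inhibition limit, whatever the replicate mean, cut at about 25% in these data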;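 note: 0% = plate neutral control median and 100% = total signal loss; the record names both 10 and 1 µM as test concentration; the first replicate is given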
Target sequence (P42568 whole entry, looked up): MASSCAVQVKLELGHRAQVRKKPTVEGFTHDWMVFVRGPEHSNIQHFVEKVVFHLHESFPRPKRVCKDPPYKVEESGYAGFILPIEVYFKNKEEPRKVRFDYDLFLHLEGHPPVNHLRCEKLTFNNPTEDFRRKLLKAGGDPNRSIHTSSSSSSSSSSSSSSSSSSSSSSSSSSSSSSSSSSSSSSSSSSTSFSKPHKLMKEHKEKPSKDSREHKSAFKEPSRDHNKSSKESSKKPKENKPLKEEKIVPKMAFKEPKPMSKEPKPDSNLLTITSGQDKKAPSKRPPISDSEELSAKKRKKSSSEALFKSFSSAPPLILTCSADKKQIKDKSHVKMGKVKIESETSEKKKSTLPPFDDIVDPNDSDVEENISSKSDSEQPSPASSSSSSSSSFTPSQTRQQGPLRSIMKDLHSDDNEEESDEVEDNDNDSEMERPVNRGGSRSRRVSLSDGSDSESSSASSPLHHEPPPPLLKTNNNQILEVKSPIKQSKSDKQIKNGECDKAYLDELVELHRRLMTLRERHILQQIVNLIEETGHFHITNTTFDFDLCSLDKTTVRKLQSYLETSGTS
E coli growth: E. coli growth inhibition, primary screen, OD600 | Escherichia coli growth, 23 h; stronger effect = lower value | OD600 absorbance (concentration not given with the values) | 330,000 compounds, 0.21% hits | AID 1053175, 2014;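 active = OD600 absorbance below the run mean of sample wells minus 3.6 SD, in any replicate, cut at about 0.56 in these data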;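 note: stock transfer was 300 nL into about 60 µL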
ALR inh: inhibitors of human ALR sulfhydryl oxidase, primary screen, biochemical, H2O2 detection, HRP-luminol luminescence, single point. FAD-linked sulfhydryl oxidase ALR (Homo sapiens), P55789. purified ALR, DTT oxidation. 290,000 compounds, 3.8% hits. AID 485317, 2010. inhibition, % (concentration not given with the values);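 active = mean and each replicate at 75% or more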;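 note: stock transfer was 7.5 nL into about 7.5 µL; 0% = neutral wells and 100% = wells with inactivated enzyme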
Target sequence (P55789 whole entry, looked up): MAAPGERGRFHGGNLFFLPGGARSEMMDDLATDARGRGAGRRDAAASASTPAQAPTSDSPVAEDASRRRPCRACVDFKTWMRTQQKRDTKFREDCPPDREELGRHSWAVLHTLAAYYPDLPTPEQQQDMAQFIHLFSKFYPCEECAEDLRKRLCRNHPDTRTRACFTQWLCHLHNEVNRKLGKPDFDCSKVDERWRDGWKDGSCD
FGF22 binding: binders of human FGF22 protein, primary screen, FGF22 synaptogenesis inhibitor project, biophysical, thermal shift, single point; 340,000 compounds, 1.5% hits; recombinant FGF22 thermal shift, SYPRO orange fluorescence; percent of sucrose octasulfate shift, DMSO zero; Fibroblast growth factor 22 (Homo sapiens), Q9HCT0; calls only at 9.99 µM; AID 651658, 2012;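 active = melting point raised past a set limit in the mean and every replicate; three in four hits are not shown here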
Target sequence (Q9HCT0 whole entry, looked up): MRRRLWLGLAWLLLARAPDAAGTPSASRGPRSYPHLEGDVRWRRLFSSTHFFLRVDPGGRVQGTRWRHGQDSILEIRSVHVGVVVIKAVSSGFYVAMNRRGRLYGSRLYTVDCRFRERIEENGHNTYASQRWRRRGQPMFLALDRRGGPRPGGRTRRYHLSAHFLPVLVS
rRNA inh HTS: reduced GFP signal of wild-type E. coli, primary screen, bacterial rRNA inhibitor project, GFP/RFP fluorescence, OD600, single point. GFP signal change (wild-type ribosome), % (concentration not given with the values). AID 720706, 2013. E. coli WT GFP vs humanized-ribosome RFP mutants, 24 h; stronger effect = lower value; DMSO median 0, no signal -100. 350,000 compounds, 1.6% hits;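 active = significant combined selectivity score with lowered wild-type GFP, culture density cut under 30%, mutant RFP and density less affected; inactive = any of these conditions unmet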; note: one replicate is shown; some compounds called inactive have numbers as strong as hits
HNF4A DNA FP: change in binding of human HNF4A to DNA, primary screen, biochemical, fluorescence polarization, FITC-DNA; 1 h; 360,000 compounds, 0.3% hits; Hepatocyte nuclear factor 4-alpha (Homo sapiens), P41235; activity change, % at 10 µM; AID 1224865, 2016; in the data active = activity change above about 30%, passing the limit was not always enough;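 note: controls were the assay level and a saturating level of protein; the project sought stronger binding though the title names inhibitors; some compounds called inactive have numbers as strong as hits; positive values seem to mean higher polarization but the record does not say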
Vif A3G: inhibitors of Vif binding to APOBEC3G peptide, primary screen, biochemical, TR-FRET, GST-Vif 1-94, biotin-A3G peptide, dose response retest (AID 1117319); 260,000 compounds, 0.57% hits; Virion infectivity factor (Human immunodeficiency virus type 1 group M subtype B (isolate …; inhibition, %, or IC50 in µM where a hit was titrated; TR-FRET GST-Vif / biotin-A3G peptide binding; higher % means a stronger effect; test concentration not given here; strong numbers were not always called active;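 active = above the screen mean plus three standard deviations and confirmed in dose response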;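 note: Vif residues 1-94 fused to GST binding biotinylated APOBEC3G peptide 110-148; 0% = full assay without inhibitor and 100% = GST in place of GST-Vif; retest series ran down from 100 µM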
rRNA inh HTS OD600: second read-out of rRNA inh HTS, no call of its own (marks repeat the call); OD600 change, %; measured here: OD600 growth;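 optical density of the mix in the first replicate; 0 = DMSO median and -100 = no signal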
rRNA inh HTS RFP: second read-out of rRNA inh HTS, no call of its own (marks repeat the call); RFP signal change, %; measured here: RFP humanized mutant strains;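 first replicate; 0 = DMSO median and -100 = no signal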
Numbers without * were called inactive; i = inactive; . = not tested or not shown; & = joins results of further samples. A portion of the library; rates above refer to the full screens.

SMILES | AF4-AF9 inh | E coli growth | ALR inh | FGF22 binding | rRNA inh HTS | rRNA inh HTS OD600 | rRNA inh HTS RFP | HNF4A DNA FP | Vif A3G
Clc1ccccc1-c1nnn(Cc2ccc(-c3nn[nH]n3)cc2)n1 | . | 0.81 | 13 | . | . | . | . | 1.5 | 0%
O=C(Nc1ccc(Cl)cc1Cl)c1ccc(-c2ccccc2)cc1 | -2.5 | 0.66 | -6 | . | 15 | 18 | 3.2 | 0.9 | -11%
CC(=O)N1CCOc2ccc(S(=O)(=O)Nc3ncccc3C)cc21 | -0.8 | 0.7 | -13 | i | 7 | 18 | 1.9 | -4.8 | .
COCC(=O)Nc1ccc2c(c1)C(=O)N(C)C[C@H](OC)[C@@H](C)CN(Cc1cc(F)ccc1F)[C@H](C)CO2 | 2.3 | . | . | i | -7 | -4 | 0.5 | . | .
O=C(NCC1(N2CCCCC2)CCCCC1)c1cccc(NS(=O)(=O)c2ccccc2)c1 | 2.0 | 0.68 | -12 | i | 7 | -2 | 1.6 | 2.1 | -1%
COc1ccc(CN(C)C[C@@H]2OCCCC[C@H](C)Oc3ccc(NS(C)(=O)=O)cc3C(=O)N([C@@H](C)CO)C[C@H]2C)cc1 | 0.1 | . | . | i | 2 | 6 | -2.0 | . | .
Cc1cc(=O)c2c(C)nn(-c3ccccc3)c2[nH]1 | . | 0.74 | . | . | . | . | . | 0.4 | 0%
COc1ccc(NC(=O)CSCC(=O)Nc2ccc(S(=O)(=O)N3CCCCC3)cc2)cc1 | -3.4 | 0.68 | -6 | i | 1 | -1 | -4.3 | -3.5 | .
Cn1nnnc1SCC(=O)NC1CCCCC1 | . | 0.73 | -1 | . | . | . | . | 0.7 | 5%
COCC(=O)N(C)CC1CCCN(CCc2ccccc2OC)C1 (centres undefined) | -14 | 0.69 | -3 | i | 13 | 10 | 2.6 | -0.1 | .
C[C@H]1CN([C@@H](C)CO)C(=O)Cc2cc(NS(=O)(=O)c3cccs3)ccc2O[C@@H]1CN(C)CC1CC1 | -1.4 | . | . | i | -1 | 13 | -1.8 | . | .
COC(=O)C[C@H]1C=C[C@H](NS(=O)(=O)c2ccccc2F)[C@H](CO)O1 | -1.2 | . | . | i | 1 | 6 | 0.6 | . | .
Cn1c(=O)c(N)c2c3c(c(Br)ccc31)C(=O)c1ccccc1-2 | 8.1 | 0.66 | -25 | i | 69 | -4 | 38 | -105 | 16%
Cc1cccc(NC(=O)COc2ccc3oc4c(c3c2)CCCC4)n1 | . | 0.68 | -1 | . | . | . | . | -0.2 | 5%
O=C(CCl)Nc1cn(-c2ccccc2)nc1-c1ccc(F)cc1 | 3.0 | 0.69 | 57 | i | -24* | -3.6* | -5.7* | -0.6 | 24%
C/C=C/c1ccc([C@@H]2[C@@H](C#N)N(c3nc(-c4ccccc4)cs3)[C@H]2CO)cc1 | -14 | . | . | i | -8 | 4 | 2.5 | . | .
COc1cccc(CNC(=O)CCS(=O)(=O)c2ccccc2Cl)c1 | 0.9 | 0.67 | -11 | i | -2 | 1 | 0.3 | 0.1 | 4%
O=C(C[C@@H]1CC[C@H]2[C@@H](COC[C@@H](O)CN2Cc2ccncc2)O1)NCc1ccccc1Cl | -3.3 | . | . | i | 2 | -3 | -1.9 | . | .
COc1cccc(-c2nn(C)c3sc(C(=O)NCc4ccccn4)cc23)c1 | . | 0.66 | 19 | . | . | . | . | -2.4 | 25%
O=C(CN1CCN(S(=O)(=O)c2ccc(Cl)cc2)CC1)Nc1ccc(F)cc1F | . | 0.75 | -32 | . | . | . | . | 2.0 | 2%
O=C(Nc1nc2n(n1)C(c1ccccc1)C=C(c1ccccc1)N2)c1ccco1 (centres undefined) | . | 0.77 | 5 | . | 1 | 1 | -2.7 | 0.7 | 23%
CCN(CC)C(=O)N1CCC(NC(=O)c2ccc(C(C)(C)C)cc2)CC1 | . | 0.67 | -3 | . | . | . | . | -0.1 | -4%
CCCOC1(NC(=O)c2ccccc2)C(C)=CC(=O)C=C1C | . | 0.74 | -3 | . | . | . | . | 5.0 | 2%
O=C(NC[C@@H]1[C@H](c2ccccc2)[C@H](CO)N1Cc1ccccn1)C1CC1 | -0.4 | . | . | i | 2 | 1 | 2.1 | . | .
Cn1ccnc1C(=O)c1cccc(Br)c1 | -1.5 | 0.66 | -2 | i | 9 | 7 | 0.0 | 4.1 | .
CCOc1ccccc1NC(=O)COC(=O)COc1cccc2c1OC(C)(C)C2 | -0.9 | . | . | i | 2 | 8 | -1.9 | 4.4 | 2%
O=C1NC[C@H](CC2CCCCC2)N(CC2CCCCC2)C1=O | -3.1 | . | -2 | i | -6 | -8 | 6.4 | 2.0 | .
COC1=Nc2ccccc2/C=C\c2ccccc21 | -0.1 | . | . | i | -3 | -10 | -3.4 | -0.3 | 2%
COc1ccc(/C=N/OCc2nc3c4c(ncn3n2)Oc2ccc3ccccc3c2C4c2ccccc2)cc1 (centres undefined) | . | . | -16 | . | . | . | . | 1.9 | -2%
Cc1cc(C)c(C2C(C#N)=C(N)Oc3n[nH]c(C)c32)cc1CN1CCCC1 (centres undefined) | 4.6 | 0.65 | 7 | i | 15 | 18 | 4.7 | -1.6 | 4%
CCC(CC)C(=O)NCCc1cc2cc(C)c(C)cc2[nH]c1=O | -80 | 0.77 | 8 | i | 3 | 10 | -1.0 | 1.0 | -1%
CN(C)c1ccc(C(O)Cc2nc3ccccc3n2C)cc1 (centres undefined) | -2.1 | 0.69 | 25 | i | 45 | -8 | -0.2 | -1.7 | .
CCOC(=O)N1CCN(C(=O)c2ccc(Cl)c(S(=O)(=O)N3CCCC3)c2)CC1 | -1.4 | 0.68 | -4 | i | 3 | 8 | -0.6 | 4.6 | .
COCCn1cc(C(=O)NCCCN2CCC(C)CC2)c2c3ccccc3n(C)c2c1=O | . | 0.74 | -1 | . | . | . | . | 0.8 | -6%&-1%
CCCC/C(O)=C1\C(=O)CC(C)(C)CC1=Nc1ccc(OC)cc1 | . | 0.69 | -12 | . | . | . | . | 3.3 | -2%
O=C(c1cccc(F)c1)N1CCCCN2[C@H](C1)[C@@H](c1ccc(C#CC3(O)CCCC3)cc1)[C@@H]2CO | -0.7 | . | . | i | 1 | -10 | 4.2 | . | .
COc1ccccc1NC(=O)N[C@@H]1C=C[C@H](CC(=O)NCc2ccc(Cl)c(Cl)c2)O[C@@H]1CO | 1.4 | . | . | i | -11 | -15 | 3.1 | . | .
O=c1[nH]c2ccsc2c(=O)n1-c1ccc(F)c(Cl)c1 | . | 0.71 | -4 | . | . | . | . | 0.8 | -2%
CCN(CC)S(=O)(=O)c1ccc(OC)c(NC(=O)c2ccc(OC)c([N+](=O)[O-])c2)c1 | . | 0.78 | -2 | . | . | . | . | 2.5 | 3%
O=C(COc1ccccc1F)NCc1nc2ccccc2[nH]1 | -4.6 | 0.66 | -2 | i | 8 | 7 | -1.3 | -4.1 | 1%

One compound at a time, as listed above:
O=C(NCC1(N2CCCCC2)CCCCC1)c1cccc(NS(=O)(=O)c2ccccc2)c1 is entered as AF4-AF9 inh: 2.0; E coli growth: 0.68; ALR inh: -12; FGF22 binding: i; rRNA inh HTS: 7; rRNA inh HTS OD600: -2; rRNA inh HTS RFP: 1.6; HNF4A DNA FP: 2.1; Vif A3G: -1%
CCOc1ccccc1NC(=O)COC(=O)COc1cccc2c1OC(C)(C)C2 is entered as AF4-AF9 inh: -0.9; E coli growth: .; ALR inh: .; FGF22 binding: i; rRNA inh HTS: 2; rRNA inh HTS OD600: 8; rRNA inh HTS RFP: -1.9; HNF4A DNA FP: 4.4; Vif A3G: 2%

Additional entries follow.
SMILES | AF4-AF9 inh | E coli growth | ALR inh | FGF22 binding | rRNA inh HTS | rRNA inh HTS OD600 | rRNA inh HTS RFP | HNF4A DNA FP | Vif A3G
O=C(Nc1ccccc1N1CCCC1)c1cccc(S(=O)(=O)N2CCOCC2)c1 | 8.5 | 0.68 | 55 | i | -3 | -1 | 6.8 | 6.7 | 1%
CCOC(=O)CN1C(=O)C(=O)N(Cc2c(Cl)cccc2Cl)C1=O | 1.0 | 0.68 | 1 | i | 5 | 9 | 3.2 | -3.2 | -9%
Cn1c2ccc(F)cc2c2ncn(Cc3ccccn3)c(=O)c21 | -2.1 | 0.68 | 4 | i | . | . | . | 1.0 | 6%
Cc1cc(S(=O)(=O)Nc2ccc(F)cc2)c(C)s1 | . | 0.63 | -2 | . | . | . | . | -7.2 | 19%
CCCCN(C)C(=O)c1nc2ccccn2c1CN(C)Cc1csc(C)n1 | -1.1 | 0.74 | 2 | i | 6 | -1 | 1.7 | -0.3 | -5%
C[C@H](CO)N1C[C@H](C)[C@H](CN(C)S(=O)(=O)c2cccs2)Oc2c(NC(=O)CCCCCC(=O)Nc3ccccc3N)cccc2C1=O | -1.6 | . | . | i | -7 | -6 | 0.2 | . | .
O=c1[nH]c2c(c3c1CCCC3)CCCC2 | 0.0 | 0.67 | -8 | i | 1 | -12 | 1.3 | -1.3 | -6%
COc1cc(C(=O)NCC(c2cccs2)N(C)C)cc(Cl)c1OC(C)C (centres undefined) | 3.6 | 0.68 | . | i | . | . | . | -2.9 | 2%
CCCCN1C(=O)C(=O)c2cc(Cl)ccc21 | 0.2 | 0.67 | 1 | i | -51 | -80 | -20 | 2.4 | -7%
Cc1noc(C)c1NC(=O)Nc1ccc2c(c1)CC(=O)N([C@@H](C)CO)C[C@H](C)[C@@H](CN(C)C(=O)NC1CCCCC1)O2 | -2.6 | . | . | i | 2 | 3 | -1.9 | . | .
O=C(C[C@H]1CC[C@H](NC(=O)Nc2cc(F)ccc2F)[C@H](CO)O1)NCc1ccccn1 | 0.4 | . | . | i | 4 | 4 | 1.6 | . | .
CC1=N/C(=C\c2ccc([N+](=O)[O-])cc2)C(=O)N1c1ccc(Br)c(C)c1 | . | 0.69 | -5 | . | . | . | . | 5.2 | -2%
COc1ccc(N(C)S(=O)(=O)c2cccc(C(=O)Nc3nc4ccccc4[nH]3)c2)cc1 | 10 | 0.72 | . | . | -11 | -32 | -5.2 | 0.7 | -7%
COCCn1c(C)cc(C(=O)COC(=O)c2c(C)nn(Cc3ccccc3)c2C)c1C | . | 0.76 | 3 | . | . | . | . | -0.1 | 15%
CCC1=Nc2cc(C(=O)NCCN3CCCC3)ccc2Sc2ccc(C)cc21 | 15 | 0.68 | -17 | i | 1 | -3 | 0.7 | 4.3 | 0%
CC(C)CC#Cc1cnc2c(c1)C(=O)N([C@H](C)CO)C[C@H](C)[C@H](CN(C)C(=O)Cc1ccncc1)O2 | 0.0 | . | . | i | -2 | 4 | -2.1 | . | .
CN(CC(=O)Nc1ccc(F)cc1)CC(=O)N(C)C1(C#N)CCCCC1 | -5.9 | 0.63 | -2 | i | 2 | 3 | 1.4 | 5.3 | -1%
O=S(=O)(c1ccc(Cl)cc1)N1CCN(Cc2c[nH]c3ccccc23)CC1 | . | 0.67 | 0 | . | . | . | . | -0.7 | 2%
Cc1ccc(C)c(NC(=O)N2CCCCCC2)c1 | -1.0 | 0.68 | -9 | i | 6 | 10 | 0.9 | 5.0 | .
